Ecoli growth – E. coli growth inhibition, primary screen, OD600. Escherichia coli growth, 23 h; hits give low values. OD600 absorbance (no concentration beside the values). hit rate 0.21% among 330,000;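 active means OD600 absorbance below the run mean of sample wells minus 3.6 SD, in any replicate, cut at about 0.56 in these data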;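 further: stock transfer was 300 nL into about 60 µL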
B2AR ag – beta2AR agonists driving receptor internalization, primary screen, cell-based, FAP fluorogen, flow cytometry. Beta-2 adrenergic receptor (Homo sapiens), P07550. Am2.2-beta2AR cells; reference of the scale not given here. response, % (concentration not given with the values). hit rate 0.43% among 340,000. AID 504454, 2011;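 active means response above a set limit, near 3 SD of response in nonfluorescent compounds, cut at about 42% in these data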;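 further: stock transfer was 100 nL into about 11 µL; a reference agonist was the positive control; negative values mostly stem from fluorescent compounds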
Target sequence (P07550 whole entry, looked up): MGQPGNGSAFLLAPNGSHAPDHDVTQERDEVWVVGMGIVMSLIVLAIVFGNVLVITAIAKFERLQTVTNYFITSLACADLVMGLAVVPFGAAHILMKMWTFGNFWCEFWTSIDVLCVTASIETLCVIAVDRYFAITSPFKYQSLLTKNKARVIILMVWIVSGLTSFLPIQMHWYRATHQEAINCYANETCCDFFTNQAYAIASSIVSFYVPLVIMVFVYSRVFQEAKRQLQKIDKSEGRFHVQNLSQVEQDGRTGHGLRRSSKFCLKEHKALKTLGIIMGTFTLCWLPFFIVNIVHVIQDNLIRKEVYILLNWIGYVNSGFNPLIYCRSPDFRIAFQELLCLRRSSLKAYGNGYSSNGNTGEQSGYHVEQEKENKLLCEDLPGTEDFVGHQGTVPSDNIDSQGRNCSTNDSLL
UCH37 DUB inh – inhibitors of human UCH37 deubiquitinase, primary screen, biochemical, Ub-AMC cleavage, fluorescence; Ubiquitin carboxyl-terminal hydrolase isozyme L5 (Homo sapiens), Q9Y5K5; hit rate 0.33% among 330,000; inhibition, % (no concentration beside the values); purified proteasome/UCH37;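 active means mean of two replicates above 20%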;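 further: 0% = compound-free wells with enzyme and 100% = wells lacking proteasome; stock transfer was 100 nL into about 20 µL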
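Schedule: 30 min plus 25 min, room temperature / Material: human UCH37 within purified proteasomes / Technique: AMC fluorescence intensity at 355/460 nm / Buffer or medium: pH 7.4 Tris-HCl (50 mM) with ovalbumin, ATP-MgCl2, DTT / Controls: wells without proteasome as full block, compound-free enzyme plus substrate as uninhibited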
FGF22 binding – binders of human FGF22 protein, primary screen, FGF22 synaptogenesis inhibitor project, biophysical, thermal shift, single point; calls only at 9.99 µM; hit rate 1.5% among 340,000; recombinant FGF22 thermal shift, SYPRO orange fluorescence; percent of sucrose octasulfate shift, DMSO zero; AID 651658, 2012;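 active means melting point raised past a set limit in the mean and every replicate; three in four hits are not shown here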
rRNA inh HTS – reduced GFP signal of wild-type E. coli, primary screen, bacterial rRNA inhibitor project, GFP/RFP fluorescence, OD600, single point. E. coli WT GFP vs humanized-ribosome RFP mutants, 24 h; hits give low values; DMSO median 0, no signal -100. GFP signal change (wild-type ribosome), % (no concentration beside the values). hit rate 1.6% among 350,000. AID 720706, 2013;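 active means significant combined selectivity score with lowered wild-type GFP, culture density cut under 30%, mutant RFP and density less affected; inactive means any of these conditions unmet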; further: one replicate is shown; some compounds called inactive have numbers as strong as hits
HNF4A DNA FP – change in binding of human HNF4A to DNA, primary screen, biochemical, fluorescence polarization, FITC-DNA; Hepatocyte nuclear factor 4-alpha (Homo sapiens), P41235; 1 h; activity change, % at 10 µM; hit rate 0.3% among 360,000; AID 1224865, 2016; in the data active means activity change above about 30%, passing the limit was not always enough;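 further: controls were the assay level and a saturating level of protein; the project sought stronger binding though the title names inhibitors; some compounds called inactive have numbers as strong as hits; positive values seem to mean higher polarization but the record does not say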
Target sequence (P41235 whole entry, looked up): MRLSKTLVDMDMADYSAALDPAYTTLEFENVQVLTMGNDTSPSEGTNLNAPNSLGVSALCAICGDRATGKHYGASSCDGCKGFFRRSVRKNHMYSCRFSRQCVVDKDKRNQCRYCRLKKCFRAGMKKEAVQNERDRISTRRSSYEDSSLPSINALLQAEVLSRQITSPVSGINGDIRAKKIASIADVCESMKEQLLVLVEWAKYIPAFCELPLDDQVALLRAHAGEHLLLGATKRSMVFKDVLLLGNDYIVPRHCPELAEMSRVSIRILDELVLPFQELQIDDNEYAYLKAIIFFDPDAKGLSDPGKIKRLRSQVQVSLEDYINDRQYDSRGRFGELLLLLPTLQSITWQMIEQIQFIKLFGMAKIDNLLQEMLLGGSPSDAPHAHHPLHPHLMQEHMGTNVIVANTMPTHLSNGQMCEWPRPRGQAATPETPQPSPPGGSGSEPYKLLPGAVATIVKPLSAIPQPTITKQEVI
ALR H2O2 inh – inhibitors of human ALR sulfhydryl oxidase, primary screen, biochemical, H2O2 detection, HRP-luminol luminescence, single point; FAD-linked sulfhydryl oxidase ALR (Homo sapiens), P55789; purified ALR, DTT oxidation; inhibition, % (test concentration not listed); hit rate 3.8% among 290,000; AID 485317, 2010;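 active means mean and each replicate at 75% or more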;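 further: stock transfer was 7.5 nL into about 7.5 µL; 0% = neutral wells and 100% = wells with inactivated enzyme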
Target sequence (P55789 whole entry, looked up): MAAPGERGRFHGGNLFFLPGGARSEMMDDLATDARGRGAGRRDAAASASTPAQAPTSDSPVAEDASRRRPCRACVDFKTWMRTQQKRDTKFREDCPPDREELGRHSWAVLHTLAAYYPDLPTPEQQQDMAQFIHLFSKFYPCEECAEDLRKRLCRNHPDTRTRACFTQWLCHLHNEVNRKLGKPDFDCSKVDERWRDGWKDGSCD
rRNA inh HTS OD600 – second read-out of rRNA inh HTS, no call of its own (marks repeat the call); OD600 change, %; measured here: OD600 growth;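 optical density of the mix in the first replicate; 0 = DMSO median and -100 = no signal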
rRNA inh HTS RFP – further read-out of rRNA inh HTS, marked with its call; RFP signal change, %; measured here: RFP humanized mutant strains;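 first replicate; 0 = DMSO median and -100 = no signal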
* = called active by the depositor; i = inactive; . = no result given. The list is partial; count on the stated rates, not on these rows.

SMILES	Ecoli growth	B2AR ag	UCH37 DUB inh	FGF22 binding	rRNA inh HTS	rRNA inh HTS OD600	rRNA inh HTS RFP	HNF4A DNA FP	ALR H2O2 inh
CC1CC(C)CN(CCCNC(=O)COc2cc(=O)n(C)c3ccccc23)C1 (configuration not stated)	0.68	-3	5.0	.	.	.	.	-1.7	0
CCOc1ccccc1CNC(=O)c1cn(C)c(=O)c2c1c1ccccc1n2C	0.69	2	-27	i	-16	-18	11	3.3	.
COc1ccc(C(c2nnnn2Cc2cccs2)N2CCN(c3ccccc3F)CC2)cc1OC (configuration not stated)	0.73	6	2.7	.	.	.	.	-3.3	1
NCCCC[C@H]1CN=C(N)N1CCCCC1CCCCC1	.	6	3.4	.	.	.	.	0.2	-1
CCCCN(C(=O)Cc1cccc(F)c1)c1c(N)n(CCC)c(=O)[nH]c1=O	0.66	2	2.2	i	14	14	2.1	-1.6	-10
Cc1ccc(NC(=O)C2CCCN(c3ncnc4c3nc3n4CCCCC3)C2)nc1 (configuration not stated)	0.69	3	2.6	i	-17	-31	-1.9	12	4
Cc1ccc(C(=O)OCC(=O)NC2CCCCC2)o1	.	2	.	i	5	7	-1.9	1.5	-6
O=C1c2ccccc2C(=O)c2c1ccc(C(=O)N1CCCCC1)c2NCCO	0.76	-5	4.8	.	.	.	.	4.3	-8
CC1CN(C(=O)CN2C(=O)NC3(CCCCCC3)C2=O)CC(C)O1 (configuration not stated)	0.68	2	4.2	.	.	.	.	0.4	-6
CC1CCCN(C(=O)COC(=O)Cc2c[nH]c3ccccc23)C1 (configuration not stated)	0.64	4	2.0	i	-1	-4	1.1	0.8	1
CC1(C(=O)N2Cc3ccccc3C2)CCN1C(=O)Cc1ccccc1 (configuration not stated)	.	.	.	i	9	19	1.1	1.4	.
CCc1ccc2c(CN3CCc4cc(OC)c(OC)cc4C3)cc(=O)oc2c1	0.71	-1	-88	.	.	.	.	-0.4	1

Ordered by length of the SMILES (descending): three of the compounds above
SMILES	Ecoli growth	B2AR ag	UCH37 DUB inh	FGF22 binding	rRNA inh HTS	rRNA inh HTS OD600	rRNA inh HTS RFP	HNF4A DNA FP	ALR H2O2 inh
COc1ccc(C(c2nnnn2Cc2cccs2)N2CCN(c3ccccc3F)CC2)cc1OC (configuration not stated)	0.73	6	2.7	.	.	.	.	-3.3	1
O=C1c2ccccc2C(=O)c2c1ccc(C(=O)N1CCCCC1)c2NCCO	0.76	-5	4.8	.	.	.	.	4.3	-8
CC1(C(=O)N2Cc3ccccc3C2)CCN1C(=O)Cc1ccccc1 (configuration not stated)	.	.	.	i	9	19	1.1	1.4	.

Next records:
SMILES	Ecoli growth	B2AR ag	UCH37 DUB inh	FGF22 binding	rRNA inh HTS	rRNA inh HTS OD600	rRNA inh HTS RFP	HNF4A DNA FP	ALR H2O2 inh
CN1CC(COCc2ccccc2)Oc2ccccc2S1(=O)=O (configuration not stated)	0.7	-5	1.0	i	-2	1	4.8	2.9	.
O=C(Nc1ccccc1C(=O)N1CCOCC1)C1CC(=O)N(c2ccc(F)cc2)C1 (configuration not stated)	.	2	.	i	11	10	0.6	-3.8	-4
O=C(N/N=C/C=C/c1ccccc1)NC1CCCCC1	.	21	.	i	17	21	5.0	1.7	-25
COc1c(C=O)c(CCN(C)C(=O)c2ccc(F)cc2)cc2c1OCO2	0.71	-7	2.4	i	-5	4	-1.0	0.3	0
CCOC(=O)C1(Cc2ccccc2)CCN(Cc2cnn(CC)c2)CC1	0.71	2	0.6	i	16	11	2.1	1.2	4
CC1CCCCC12NC(=O)N(CC(=O)c1ccc(Cl)s1)C2=O (configuration not stated)	0.69	-5	5.0	i	-7	-8	1.4	0.7	-2
Cc1ccccc1OCC(=O)Nc1ccc([N+](=O)[O-])cc1	0.63	-2	7.2	i	4	10	2.0	-0.2	-5
CN1CCN(C(=O)c2ccc3c(=O)n(-c4ccc(F)cc4)c(=S)[nH]c3c2)CC1	0.68	3	5.1	i	22	13	4.6	-2.5	17
Clc1ccc(C2CC(c3ccco3)n3ncnc3N2)cc1Cl (configuration not stated)	0.71	4	7.0	.	-26	-48	-17	4.0	1
CCc1nc2ccc(C(=O)NCCOc3ccc(OC)cc3)cn2c1N(CC)CCN(C)C	.	.	.	i	1	-1	4.7	-0.7	.
CC/C(=N\O)c1c(O)c2c(n(-c3ccccc3)c1=O)CCCC2	.	7	.	i	.	.	.	0.1	-4
CCc1nnc(NC(=O)CSc2nnc(Cc3ccccc3)o2)s1	0.68	2	-0.5	.	0	-8	1.6	3.1	1

Fetched by structure from above (5):
SMILES	Ecoli growth	B2AR ag	UCH37 DUB inh	FGF22 binding	rRNA inh HTS	rRNA inh HTS OD600	rRNA inh HTS RFP	HNF4A DNA FP	ALR H2O2 inh
O=C(N/N=C/C=C/c1ccccc1)NC1CCCCC1	.	21	.	i	17	21	5.0	1.7	-25
CC/C(=N\O)c1c(O)c2c(n(-c3ccccc3)c1=O)CCCC2	.	7	.	i	.	.	.	0.1	-4
CCc1nnc(NC(=O)CSc2nnc(Cc3ccccc3)o2)s1	0.68	2	-0.5	.	0	-8	1.6	3.1	1
O=C(Nc1ccccc1C(=O)N1CCOCC1)C1CC(=O)N(c2ccc(F)cc2)C1 (configuration not stated)	.	2	.	i	11	10	0.6	-3.8	-4
CC1CCCCC12NC(=O)N(CC(=O)c1ccc(Cl)s1)C2=O (configuration not stated)	0.69	-5	5.0	i	-7	-8	1.4	0.7	-2

The list goes on:
SMILES	Ecoli growth	B2AR ag	UCH37 DUB inh	FGF22 binding	rRNA inh HTS	rRNA inh HTS OD600	rRNA inh HTS RFP	HNF4A DNA FP	ALR H2O2 inh
CCCNC(=O)c1cc(SC)ccc1Cl	0.65	9	0.2	.	15	-5	-0.7	-1.4	-3
CC1=Nn2c(nc3sc4c(c3c2=O)CCCC4)SC1	.	-12	1.2	.	.	.	.	4.0	-3
O=C(/C=C/c1cccs1)Nc1ccc([N+](=O)[O-])cc1	0.64	-6	5.8	.	.	.	.	0.9	6
Cc1ccc2nc(SCC(=O)Nc3cc(C(F)(F)F)ccc3N3CCOCC3)[nH]c2c1	0.67	22	-0.1	.	.	.	.	-2.6	-3
Cn1c(C(=O)N2CCCC(Nc3ccc(F)cc3)C2)cc2ccccc21 (configuration not stated)	0.67	7	6.7	i	0	-7	-0.5	0.7	41
C/C(=N\NC(=O)c1ccccc1F)c1ccccn1	.	20	.	i	-13	-16	-4.4	1.3	-12
COCCNC(=O)/C(C#N)=C/c1cccc(NC(=O)c2ccccc2Cl)c1	0.68	10	0.7	.	.	.	.	1.2	-3
CCC(=O)Nc1ccc(C(=O)COC(=O)Cc2ccsc2)cc1	0.66	-9	0.4	i	3	-1	1.1	6.0	-1
O=C(Cc1ccccc1Cl)Nc1cccc(S(=O)(=O)N2CCCCCC2)c1	0.71	0	2.5	i	-4	-17	-2.3	-7.4	0
COC(=O)c1cn(C)c2ccc(S(=O)(=O)N3CCCC3)cc2c1=O	0.67	0	4.5	.	.	.	.	1.2	-4
COc1ccc(OC)c(-n2c(=O)c3ccccc3c3ccccc3c2=O)c1	0.69	1	3.6	i	-8	-18	-0.1	0.6	2
N=c1oc2ccccc2cc1-c1nc(-c2ccc(Cl)cc2)cs1	0.68	3	-59	.	.	.	.	1.5	-3
CC(C)c1ccc[n+](-c2nc([O-])sc2C=O)c1	0.68	-1	6.8	i	14	7	1.9	0.4	-8
COCCCNC(=O)c1ccc(N(C)S(=O)(=O)c2ccc(OC)cc2)cc1	0.77	7	-2.0	.	.	.	.	0.3	4
Cc1ccccc1-n1c(C)nnc1SCC(=O)NC1CCCc2ccccc21 (configuration not stated)	0.72	-4	5.6	.	.	.	.	5.3	.
COC(=O)C1=C(N)Oc2cc(C)n(Cc3cccnc3)c(=O)c2C1c1ccc(OC)c(OC)c1 (configuration not stated)	0.71	4	1.3	.	.	.	.	0.9	-11
CCCCCC(=O)N1C[C@H](O)[C@@H](n2cc(C3CC3)nn2)C[C@@H]1c1ccc(C)cc1	.	.	.	i	-7	-8	-1.7	-1.5	.
NC(=O)CSc1nnc(COc2cccc3ccccc23)o1	0.68	-4	0.7	i	-13	-14	-1.3	-1.0	-1
CCOC(=O)c1ccccc1OC(=O)NNc1ccccc1	0.66	9	3.6	i	-13	-3	-1.6	3.0	.
O=C1CCCN1CCC(=O)N1CCCC(N2CCN(c3ccccc3F)CC2)C1 (configuration not stated)	0.71	3	4.4	i	6	8	0.5	1.2	7
COc1ccccc1-c1csc(C(O)(c2ccccc2)C(F)(F)F)n1 (configuration not stated)	.	.	.	i	-35	-44	-11	-0.2	.
COc1ccc(C(=O)N=C2SC3CS(=O)(=O)CC3N2c2ccc(N(C)C)cc2)cc1OC (configuration not stated)	0.74	54*	-108	i	5	9	-4.9	-3.4	2
COc1ccccc1C(=O)NCC(=O)OC(C)C(=O)N1CCOCC1 (configuration not stated)	0.69	-8	2.4	i	5	10	-0.8	-0.8	15
O=C(CSc1nnc(NC(=O)c2cccc(Br)c2)s1)NCC1CCCO1 (configuration not stated)	0.73	11	-0.6	i	18	9	1.5	-0.1	18
Cc1cc(Nc2ccccc2N2CCOCC2)n2ncnc2n1	0.66	2	3.0	.	.	.	.	1.6	-27
Cc1nn(-c2cc(N3CCCCC3)ccc2[N+](=O)[O-])c(=O)c2ccccc12	0.74	-21	5.5	.	.	.	.	4.1	.
O=C1c2cccc(Cl)c2C(=O)N1c1ccccn1	0.67	-1	7.4	i	0	-2	-0.7	1.9	-3
Cn1c2ccccc2c2nnc(SCCN3CCOCC3)nc21	0.68	3	7.0	i	1	6	8.0	0.9	.
Cc1ccc(S(=O)(=O)/N=C(/c2ccc(F)cc2)N(C)C)cc1	.	-2	.	i	8	8	-0.5	-1.6	-17
Nn1c(SCC(=O)Nc2ccc3c(c2)OCCO3)nnc(CCC(=O)O)c1=O	0.68	-4	-3.5	i	4	6	-3.2	1.7	93*
CC(C)CC(=O)Nc1ccc([N+](=O)[O-])cc1Cl	0.69	7	2.6	i	16	9	-2.8	1.7	-8
O=C(CSc1nnc(-c2ccccc2F)o1)Nc1ccc(N2CCOCC2)cc1	0.71	2	0.0	i	0	0	-2.0	3.4	-5
Cc1ccc(C)c(NC(=S)NCc2cccn2C)c1	0.66	.	0.5	.	.	.	.	.	8
CCN(C(=O)COC(=O)Cc1c(F)cccc1Cl)c1c(N)n(Cc2ccccc2)c(=O)[nH]c1=O	0.68	-8	2.2	i	13	5	1.6	-1.6	-3
Cn1cccc1C(=O)NC(=O)COC(=O)CCNS(=O)(=O)c1cccc(C(F)(F)F)c1	0.63	-2	0.3	i	.	.	.	0.7	-1
Cn1nnnc1Sc1ncnc2scc(-c3ccccc3)c12	0.68	-1	5.0	.	7	10	-3.3	3.1	11
CC(=O)Nc1ccc(-c2csc(Nc3ccccn3)n2)cc1	0.7	0	5.4	i	0	13	14	4.3	6
CCN1CCN(C(=O)CN(c2cccc(Br)c2)S(=O)(=O)c2ccccc2)CC1	0.63	4	3.6	i	0	-10	0.8	-5.9	-9
COc1cc(C(=O)N(CCc2ccccc2)C2=CC3CCC(C2)N3C)cc(OC)c1OC (configuration not stated)	0.74	0	4.7	.	.	.	.	-0.2	-4
O=C(CSc1nnc2ccc(-c3ccc(Br)cc3)nn12)NCC1CCCO1 (configuration not stated)	0.67	5	-15	i	-8	1	-3.4	-3.0	-1
CCOc1ccc(CN(C)CC(=O)NCc2ccccc2)cc1	0.67	-14	5.6	i	6	-3	-0.3	0.6	-1
